# Insulin prom inh = TRM-6 insulin promoter activity inhibition. TRM-6 cells (human fetal islet line), insulin promoter-eGFP reporter, imaging; reporter expression induced with tamoxifen. hit rate 0.9% among 130,000. inhibition, % at 2 µM;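 active = inhibition above the mean plus 3 SD, with well images judged a real hit on visual review, cut at about 60% in these data, passing the limit was not always enough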
# GALR2 agonist = activates the human galanin receptor 2 | O43603 | GALR2-expressing cells, agonist activation read-out | activation, %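 (tested at 5 µM)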 | hit rate 0.48% among 140,000 | AID 803;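 active = above mean plus 3 SD of all compounds, about 5% in these data, not always enough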;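 note: 0% = vehicle buffer wells and 100% = reference agonist at full effect; tested in CHO reporter cells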
# RGS16-Gao = RGS16-Galphao interaction regulator (human) | binding response (% of control), % at 10 µM | AID 1441 | hit rate 0.38% among 220,000 | O15492+P09471 | bead-based flow cytometry RGS16-Galphao binding, fluorescence; actives lie on both sides;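 active = below 25% or above 175%, edge rows of some plates excepted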;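 note: Galphao activated by GDP with aluminum fluoride before binding; 100% = wells without compound and 0% = beads without RGS; some results beyond the cut were filed as inactive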
# HSV augment = increases HSV replication in cells; HSV replication augmentation in cells, fold increase; maximum fold increase; hit rate 0.005% among 220,000; AID 1956;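 active = peak rise of 1.5-fold or more in the series; tested in PC3 cells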;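 note: first round at 10 µM; read as green reporter fluorescence; hits show the peak of a series up to 25 µM; 1 = signal of infected wells without compound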
# PKD1 kinase inh = PKD1 (human) kinase inhibition. Q15139. inhibition, %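 (about 10 µM by stock and volumes)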. PKD1 kinase fluorescence polarization assay. hit rate 0.056% among 200,000. AID 797;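 active = inhibition of 50% or more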;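 note: controls were vehicle for no effect and a reference inhibitor for full effect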
# Target sequence (Q15139 whole entry, looked up): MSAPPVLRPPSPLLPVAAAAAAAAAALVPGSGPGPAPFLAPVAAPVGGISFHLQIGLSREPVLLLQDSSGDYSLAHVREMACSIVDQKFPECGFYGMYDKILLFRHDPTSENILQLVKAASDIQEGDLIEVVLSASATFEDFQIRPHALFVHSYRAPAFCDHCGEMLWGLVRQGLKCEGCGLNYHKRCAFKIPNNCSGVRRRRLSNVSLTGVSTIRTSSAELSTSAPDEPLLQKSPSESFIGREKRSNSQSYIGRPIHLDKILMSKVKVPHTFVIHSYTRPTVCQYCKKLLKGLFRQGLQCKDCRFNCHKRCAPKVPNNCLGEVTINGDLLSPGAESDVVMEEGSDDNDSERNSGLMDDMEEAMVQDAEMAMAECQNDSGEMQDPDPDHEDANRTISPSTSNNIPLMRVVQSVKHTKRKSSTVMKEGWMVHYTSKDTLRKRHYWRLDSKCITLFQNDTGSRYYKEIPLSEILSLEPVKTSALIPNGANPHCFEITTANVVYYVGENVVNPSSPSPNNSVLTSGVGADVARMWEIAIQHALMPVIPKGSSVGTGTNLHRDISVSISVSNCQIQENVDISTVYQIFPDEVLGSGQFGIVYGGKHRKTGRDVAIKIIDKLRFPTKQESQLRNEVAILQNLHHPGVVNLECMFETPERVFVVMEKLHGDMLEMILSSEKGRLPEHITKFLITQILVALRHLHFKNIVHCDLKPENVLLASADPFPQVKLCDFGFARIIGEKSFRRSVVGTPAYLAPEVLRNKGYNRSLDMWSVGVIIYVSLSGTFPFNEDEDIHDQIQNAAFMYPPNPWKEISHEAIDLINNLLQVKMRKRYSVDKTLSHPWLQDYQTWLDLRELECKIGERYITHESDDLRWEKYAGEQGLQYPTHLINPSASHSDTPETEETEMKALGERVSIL
# Insulin prom inh cell count = also measured in Insulin prom inh; calls as there; normalized cell count, %; measured here: cell count, toxicity; reference of the scale not given here;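 cells exposed to compound for 48 h; stained nuclei by imaging scaled within each plate; lower means fewer cells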
# HSV augment primary fold = further read-out of HSV augment, marked with its call; fold increase; compound at 10 µM; measured here: primary screen fold increase 10 uM; tested in PC3 cells;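 GFP signal in the first replicate; 1 = infected wells without compound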
# * marks the source's active call; other numbers are inactive results; i = inactive; . = not tested or not shown. Hits appear at their usual frequency. About 1.3% of those tested had a hit in this group.
SMILES,Insulin prom inh,Insulin prom inh cell count,GALR2 agonist,RGS16-Gao,HSV augment,HSV augment primary fold,PKD1 kinase inh
CCOc1ccc(C(C)=O)cc1N1C(=O)C2C3C=CC(C3=C(C)C)C2C1=O (stereo unspecified),36,109,0.4,108,i,0.93,-23
CCN(C(=O)COC(=O)c1cc(C)n(-c2ccc(F)cc2)c1C)C1CCS(=O)(=O)C1 (stereo unspecified),-59,93,-1.1,95,i,1,-8
Cc1ccc(C(N)=O)cc1S(=O)(=O)Nc1cccc(C)c1C,0,75,-3.6,99,i,0.91,-10
COc1ccc(-n2c(CN3CCN(Cc4ccccc4)CC3)nc3ccc([N+](=O)[O-])cc3c2=O)c(OC)c1,.,.,.,97,i,0.99,-6
Cc1c(Cl)cccc1NC(=O)CNC(=O)c1ccc(F)cc1,12,100,-0.9,93,i,1,2
C#CCSc1nc(=O)c2cccnc2n1-c1ccc(C)cc1,.,.,.,98,i,0.92,.
Cc1ccc(/C=N/NC(=O)Cn2cncn2)cc1,.,.,.,97,i,0.81,3
N#CCC(=O)N/N=C/c1ccc(OC2CSC2)cc1,52,100,.,104,i,0.97,-12
CCN(Cc1ccccc1)C(=O)COC(=O)Cn1cnc2ccccc21,.,.,.,104,i,0.88,1
COc1cccc(N/C(N)=N/c2nc(C(F)(F)F)cc(=O)[nH]2)c1,.,.,0.3,119,i,0.9,-7
COc1ccc(CN2C(=O)CN(C3CCCCCC3)C(=O)C2c2ccc(F)cc2)cc1 (stereo unspecified),-20,157,-1.3,103,i,0.61,-6
Cc1cc([N+](=O)[O-])c(NC2CCCCC2)c([N+](=O)[O-])c1,-4,114,-3.2,.,i,0.95,-2
COC(=O)C1=C(C)N(Cc2ccccc2)C(=O)N[C@H]1c1ccccc1,-133,68,-1.3,34,i,1,-4
CCOC(=O)c1ccc(NC(=O)CSc2nnc(C3CC3)n2C)cc1,67,115,-3.1,101,i,1,-10
O=c1ccsn1Cc1ccccc1,3,81,-3.8,73,i,0.87,-3
O=C(CSc1nc2ccccc2[nH]1)Nc1ccc2c(c1)OCCO2,-21,108,0.1,116,i,0.98,-15
Cc1ccc(S(=O)(=O)CCc2nc3ccccc3[nH]2)cc1C,44,57,.,110,i,0.83,6
Cc1ccc(S(=O)(=O)NCC(c2ccco2)N2CCOCC2)cc1 (stereo unspecified),19,77,-1.9,107,i,1.1,1
CCOc1ccc(Nc2nnc(SCc3nc4ccccc4c(=O)[nH]3)s2)cc1,.,.,.,100,i,1.1,.
COc1c(C)cc(C(=O)C2CCCN(C(=O)C3=C(C)OCCO3)C2)cc1C (stereo unspecified),.,.,.,96,i,0.94,-3
CC(C)(C)NC(=O)/C(=C\c1ccc(Br)cc1)NC(=O)c1cccs1,.,.,-1.9,99,i,0.9,-4
CCCc1nc2sc3c(=O)[nH]cnc3c2c2c1CCCC2,.,.,.,99,i,0.92,.
COc1ccc(NC(=S)NCc2cccnc2)cc1,.,.,.,103,i,1.1,-4
COCCCNC(=O)Cn1nnc(-c2ccccc2NC(=O)c2ccccc2F)n1,-38,79,-0.8,.,i,1,5
S=c1[nH]nc(-c2ccco2)n1-c1cccc2ccccc12,50,137,1.7,92,i,0.98,-4
Cc1cccc(NCCC#N)c1,36,68,-1.8,25,i,1.1,-3
O=C1CSC(c2cn(-c3ccccc3)nc2-c2cccs2)N1Cc1ccccc1 (stereo unspecified),27,108,-2.1,100,.,.,8
N#CCC(CNc1ncc(C(F)(F)F)cc1Cl)OC(=O)c1cccc([N+](=O)[O-])c1 (stereo unspecified),13,156,-3.5,105,i,0.7,-2
O=C(NCc1ccc(Cl)cc1)c1n[nH]c([N+](=O)[O-])c1Cl,.,.,.,102,i,1.1,-4
COc1ccc(CC(=O)OCc2cc(=O)n3cc(Br)ccc3n2)cc1OC,67,106,.,110,i,0.99,3
CCn1c(CSc2nc3ccccc3s2)nnc1SCC(=O)c1ccc(O)cc1O,-16,83,-2.2,113,i,0.83,1
Cn1nnnc1SCC(=O)c1ccc(Br)s1,-9,105,-2.0,101,i,0.95,-4
COC(=O)c1ccc([C@@H]2C[C@H]3CN(Cc4cccnc4)C(=O)[C@]34CCCN24)cc1,-17,120,.,96,i,1,-2
CCOc1cc(CNc2ccc(N3CCCCC3)cc2)cc(Br)c1OCC(=O)NC(C)(C)C,-9,165,-0.2,93,i,0.93,0
CCc1nnc(NC(=O)CSc2nc3cccnc3n2C2CCCCC2)s1,47,139,-1.7,91,i,0.93,7
CCN(CC)c1ccc2c(c1)oc(=O)c1c(Cl)cc(=O)oc12,-219,164,20*,92,i,1.2,-6
CCc1ccc(/C=C(\Cl)c2nc3cc(Cl)ccc3c(=O)[nH]2)cc1,29,104,-1.4,97,i,0.97,-8
CNc1ccc(/C=C(\C#N)c2ccccn2)cc1[N+](=O)[O-],.,.,.,99,i,1.1,-1
C=CCOc1ccccc1C1C2=C(CC(C)(C)CC2=O)Nc2c1c(=O)n(C)c(=O)n2C (stereo unspecified),.,.,-1.9,101,.,.,9
CC1CCN(S(=O)(=O)N2CCC(C(=O)NCc3cccs3)CC2)CC1,.,.,-1.2,107,i,0.85,-10
CCC(CO)NCc1ccc2c(c1)n(C)c(=O)n2C (stereo unspecified),-6,99,-1.2,107,i,0.89,-12
C/C=C/C(=O)Nc1nnc(-c2ccccc2C)s1,.,.,.,104,i,0.85,8
COc1ccc(-c2cc(C(F)(F)F)n3nc(C(=O)N4CCOCC4)nc3n2)cc1,-12,55,-1.7,83,i,0.89,-5
C[N+]1(C)CC2([N+](=O)[O-])CC=C(Oc3ccccc3)C([N+](=O)[O-])(C2)C1 (stereo unspecified),-77,43,-2.4,108,i,0.98,-9
Cn1c(=O)c2c(nc(SCCN3CCCCC3)n2C)n(C)c1=O,-2,78,-1.9,88,.,.,-9
O=C(CN1C(=O)/C(=C/c2ccccc2F)Oc2ccccc21)N1CCN(c2ccccn2)CC1,10,105,-0.6,31,i,1.1,-11
COc1ccc(/C(N)=N/OC(=O)Oc2ccccc2)cc1OC,2,47,-1.8,261,i,0.91,-10
O=C(Nc1ccccc1)c1ccccc1N=Cc1cccc(O)c1,.,.,.,106,i,0.97,-3
O=C(Nc1ccncc1)c1cncc(Br)c1,30,104,-2.2,97,i,0.97,-3
Fc1ccc(CSc2nc3ncc(Br)cc3[nH]2)cc1,14,81,-3.4,102,i,0.84,-7
COc1ccc(Cc2c(O)nc(SCC(=O)NC(C)(C)C)[nH]c2=O)cc1,-7,104,.,102,i,0.91,-2
COC(=O)c1cc(Br)c(=O)n(-c2ccccc2F)c1,5,71,-0.1,96,i,0.99,1
Brc1ccc(Nc2c3c(nc4ncnn24)CCC3)cc1,38,111,-1.8,103,i,1.1,-5
CCCCNc1ncnc2c1cnn2-c1ccc(C)cc1C,.,.,-2.0,103,i,0.83,-7
Cc1ccc(C(=O)Oc2ccc(Cl)c3cccnc23)cc1[N+](=O)[O-],-53,76,-1.9,107,.,.,5
COc1ccc(NC(=O)COC(=O)Cn2cnc3ccccc3c2=O)cc1OC,.,.,.,105,i,0.88,.
CCOC(=O)C1=C(O)/C(=C/c2cc(C)n(-c3ccccc3)c2C)N=C1C,.,.,.,93,i,1,.
COC(=O)Cc1nc2ccccc2[nH]1,.,.,-0.7,85,i,0.95,-13
Cc1ccc(C)c(N2CCN(C(=O)CCCOc3cc(=O)n(C)c4ccccc34)CC2)c1,.,.,0.8,106,i,0.77,11
COc1ccc(NC(=O)COc2ccc(C(=O)OCC(=O)N(C)C3CCS(=O)(=O)C3)cc2OC)cc1 (stereo unspecified),.,.,.,99,i,0.77,-1
# Later entries:
SMILES,Insulin prom inh,Insulin prom inh cell count,GALR2 agonist,RGS16-Gao,HSV augment,HSV augment primary fold,PKD1 kinase inh
CC(C)c1ccc(NC(=O)C2C3C=CC4(CN(CCCN5CCOCC5)C(=O)C24)O3)cc1 (stereo unspecified),7,92,-0.2,98,i,0.98,-1
COc1ccccc1Oc1ccc2c(c1)C(=O)N(c1ccc(C)cc1)C2=O,.,.,-2.0,101,.,.,5
O=C(O)CC1NC(=O)N(c2ccc(Cl)cc2)C1=O (stereo unspecified),.,.,-0.5,101,i,0.87,-4
Cc1nc2ccccn2c1C(=O)CSc1ccccc1Cl,-14,71,-2.2,99,i,0.87,2
O=C(Nc1ccc(O)c(-c2nc3ccccc3o2)c1)C1(c2ccc([N+](=O)[O-])cc2)CCCC1,.,.,-0.7,99,i,0.83,-2
CCCC(=O)Oc1ccc(-c2nccc(C(OC)OC)n2)cc1,36,88,.,102,i,1.1,-2
O=C(NN1C(=O)/C(=C\c2ccc(O)c([N+](=O)[O-])c2)SC1=S)c1ccccc1Cl,.,.,.,101,i,0.8,.
O=C(O)C1CCCCC1C(=O)NCCc1ccc(Cl)cc1 (stereo unspecified),44,107,1.3,90,i,0.95,1
C/C(=N/NC(=O)c1ccc2c(c1)OCO2)c1ccc(NC(=O)C(F)(F)F)cc1,-31,171,-0.2,99,i,0.76,-1
CC/C(=N\NC(=O)c1ccncc1)C12CC3CC(CC(C3)C1)C2,3,98,-0.1,98,i,1,-5
O=C(COC(=O)CNC(=O)c1ccccc1F)NCCC1=CCCCC1,35,114,-0.8,103,i,0.96,-1
Cc1nc2oc3c(=O)[nH]cnc3c2c2c1COC(C)(C)C2,.,.,.,103,i,0.94,.
CCOC(=O)c1sc(NC(=O)CN(CC(C)C)CC(C)C)c(C(=O)OCC)c1C,19,146,-3.1,54,i,0.78,-4
O=C(NCc1ccccn1)C1CCCN(Cc2cnn(-c3ccccc3)c2-n2cccc2)C1 (stereo unspecified),-82,36,-0.6,101,i,1,10
O=c1c2c(nc(NCCO)n1CC1CCCCC1)-c1ccccc1CC21CCCC1,23,63,-1.1,99,i,1,-3
NC(=O)C1CCN(c2nc(-c3ccccc3)nc3ccccc23)CC1,-16,124,-1.7,108,i,0.79,-5
COc1cc(C(=O)NCc2nnc(SCC(=O)Nc3nccs3)o2)cc(OC)c1OC,-144,44,.,104,i,0.94,-9
COc1ccnc(Oc2ccc(Cl)cc2)c1C#N,.,.,.,102,i,0.98,-3
Cc1ccc(S(=O)(=O)Oc2ccc(/C=C3\N=C(c4cccc(C)c4)OC3=O)cc2)cc1,-5,186,-3.3,105,.,.,4
CCCCNC(=O)COC(=O)c1cc2c(C)nn(-c3ccccc3)c2s1,.,.,-0.9,104,i,1.1,1
O=Cc1ccc(N2CCCC2)o1,41,110,.,98,i,0.92,3
c1ccc(-c2ccc3c(c2)NC(C2Nc4cc(-c5ccccc5)ccc4O2)O3)cc1 (stereo unspecified),.,.,.,111,i,1.1,.
O=C(c1cc(-c2cccs2)on1)N1CCN(C(c2ccccc2)c2ccccc2)CC1,-21,94,-2.5,105,i,1,-3
Cc1nc(C)c(C(=O)N/N=C/c2cn(C)c3ccccc23)s1,.,.,-2.7,111,i,0.7,-1
Cc1ccc(S(=O)(=O)N(CC(=O)NN=C2CCN(C)CC2)c2ccc(C(C)C)cc2)cc1,0,54,.,51,i,0.95,0
CCNc1nc2c(c(=O)n(Cc3ccccc3)c(=O)n2C)n1Cc1ccccc1,-3,136,-1.8,97,i,0.92,-17
COc1ccc(-c2csc(CCn3nc(C)cc3C)n2)cc1OC,45,118,.,87,i,0.94,-6
COc1ccccc1N(CC(=O)Nc1ccc(S(=O)(=O)N2CCCCC2)cc1)S(C)(=O)=O,-12,104,-3.4,112,i,0.95,0
Cc1c(NC(=O)Nc2ccccc2Cl)c(=O)n(-c2ccccc2)n1C,.,.,.,89,i,0.9,4
Cc1ccc(OCC2Cn3c(nc4c3c(=O)n(C)c(=O)n4C)O2)cc1 (stereo unspecified),-26,103,-1.6,101,i,0.74,-20
Cc1ccc(NC(=O)COC(=O)c2cc(Cl)ccc2[N+](=O)[O-])cc1,0,128,-0.2,92,i,1,-4

# Quoted at random: six compounds from above, in no set order.
SMILES,Insulin prom inh,Insulin prom inh cell count,GALR2 agonist,RGS16-Gao,HSV augment,HSV augment primary fold,PKD1 kinase inh
CCNc1nc2c(c(=O)n(Cc3ccccc3)c(=O)n2C)n1Cc1ccccc1,-3,136,-1.8,97,i,0.92,-17
O=C(c1cc(-c2cccs2)on1)N1CCN(C(c2ccccc2)c2ccccc2)CC1,-21,94,-2.5,105,i,1,-3
COc1ccccc1N(CC(=O)Nc1ccc(S(=O)(=O)N2CCCCC2)cc1)S(C)(=O)=O,-12,104,-3.4,112,i,0.95,0
COc1ccc(-c2csc(CCn3nc(C)cc3C)n2)cc1OC,45,118,.,87,i,0.94,-6
Cc1ccc(NC(=O)COC(=O)c2cc(Cl)ccc2[N+](=O)[O-])cc1,0,128,-0.2,92,i,1,-4
Cc1ccc(OCC2Cn3c(nc4c3c(=O)n(C)c(=O)n4C)O2)cc1 (stereo unspecified),-26,103,-1.6,101,i,0.74,-20
